VDR inh – vitamin D3 receptor (human) inhibition; Potency, µM, without a hit: max response, negative = inhibition, actives largely listed as inhibitors; 0.93% of 400,000 active; VDR-SRC2-3 peptide fluorescence polarization, 2 h; AID 504847; active = well fitted inhibition curve with a large enough effect; inconclusive = small, poorly fitted or top-dose-only effect, or another doubt; inactive = no such curve, though single readings can be large or run the other way; note: series mostly up to about 120 µM
Target sequence (P11473 whole entry, looked up): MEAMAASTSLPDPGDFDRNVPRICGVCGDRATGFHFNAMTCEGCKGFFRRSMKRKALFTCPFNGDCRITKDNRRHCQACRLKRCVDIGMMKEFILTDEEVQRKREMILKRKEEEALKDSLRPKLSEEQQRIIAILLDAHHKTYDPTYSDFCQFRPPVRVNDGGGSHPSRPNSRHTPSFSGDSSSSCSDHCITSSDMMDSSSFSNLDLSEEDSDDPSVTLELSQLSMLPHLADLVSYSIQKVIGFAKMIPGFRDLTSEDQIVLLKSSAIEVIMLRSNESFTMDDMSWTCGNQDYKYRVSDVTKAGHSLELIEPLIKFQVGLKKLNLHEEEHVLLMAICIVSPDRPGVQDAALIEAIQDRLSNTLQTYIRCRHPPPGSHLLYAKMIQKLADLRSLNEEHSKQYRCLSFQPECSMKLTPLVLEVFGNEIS
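Reagent solutions, kept cold and dark, are dispensed first; compounds are then pinned in at 23 nl, plates briefly spun, and incubated 2 h at ambient temperature. Inhibition of VDR–SRC2-3 peptide binding is read by fluorescence polarization.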
Starred values were filed as active, the others as inactive; ? = inconclusive; & = joins results of further samples; [ ] = another dose, or the depositor's remark. % is set by controls: 0 for no effect and ±100 for the full control effect; potency is the fitted concentration of half-maximal effect. This is a subset (hit frequency here may not be typical).

SMILES,VDR inh
CCOC(=O)C1CCN(C(=O)C2CCN(c3nc4ccc(OC)cc4s3)CC2)CC1,12%
CCOC(=O)CNC(=O)C(=O)c1c(O)[nH]c2ccccc12,9%
Cc1ccc(S(=O)(=O)c2nc(-c3ccc(F)cc3)oc2SCC(N)=O)cc1,-5%
COc1ccccc1C(=O)Nc1nnc2n1CCS2,13%
O=C(c1ccccc1Br)N(Cc1ccccc1)c1ccccc1,-8%
Fc1cccc(F)c1CSc1nc2ccccc2[nH]1,-2%
Nc1c(C(=O)NCc2ccc(Cl)cc2Cl)nnn1Cc1ccc(Br)cc1,-9%
Cc1onc(-c2ccccc2)c1-c1nnc(CN2CCN(S(=O)(=O)c3ccccc3)CC2)o1,-2%
COc1cc(OC)c(NS(=O)(=O)c2cccc(C(=O)OCC(=O)NCC3CCCO3)c2)cc1Cl (centres undefined),0%
CCc1cccc(C)c1NC(=O)C1C2CCC(O2)C1C(=O)O (centres undefined),-3%
O=C(NCc1ccco1)c1ccc(NS(=O)(=O)c2cccc([N+](=O)[O-])c2)cc1,-3%
CN(C)c1oc(-c2cccs2)nc1C#N,-12%
Clc1ccc(CSc2ccc(-c3cccnc3)nn2)cc1,-11%
NC(=O)[C@@H]1CCCN1C(=O)c1cc(COc2ccc3c(c2)CCCC3)on1,-6%
O=C(CN(Cc1ccccc1)C1=NCCS1)c1ccccc1,2%
CCS(=O)(=O)c1ncc(Cl)c(C(=O)Nc2ccccc2OC)n1,?
O=[N+]([O-])c1cccc(/C=C/c2nc(C=Nc3ccc4ccccc4c3)c(O)o2)c1,15%
CCOc1nc(C#N)nc(N(c2ccccc2)c2ccccc2)n1,-3%
O=C(NCCc1csc(-c2ccc(C(F)(F)F)cc2)n1)c1ccccc1Cl,3%
CCn1c(SCC(=O)N2CCCCC2C)nnc1-c1ccco1 (centres undefined),-8%
Cc1ccc(NC2Sc3ccccc3NC2=O)cc1 (centres undefined),11µM*
COc1ccc(OC)c(C(C[N+](=O)[O-])c2c(C)cc3ccccn23)c1 (centres undefined),-25%
COc1ccc(C)cc1S(=O)(=O)N1CCC2(CC1)OCCN2S(=O)(=O)c1ccccc1,12%
O=C(COc1ccccc1Cl)Nc1ccccc1C(=O)NC1CC1,-7%
Cc1ccc(S(=O)(=O)C(C#N)=C2N(C)c3ccccc3N2C)cc1,?

Structures listed so far that contain a furan ring, fused or not, in the order listed:
SMILES,VDR inh
O=C(NCc1ccco1)c1ccc(NS(=O)(=O)c2cccc([N+](=O)[O-])c2)cc1,-3%
CCn1c(SCC(=O)N2CCCCC2C)nnc1-c1ccco1 (centres undefined),-8%

Three entries already listed, ordered by number of heavy atoms, rising.
SMILES,VDR inh
O=C(CN(Cc1ccccc1)C1=NCCS1)c1ccccc1,2%
Cc1ccc(S(=O)(=O)C(C#N)=C2N(C)c3ccccc3N2C)cc1,?
Cc1ccc(S(=O)(=O)c2nc(-c3ccc(F)cc3)oc2SCC(N)=O)cc1,-5%

Compounds above containing four or more nitrogen atoms:
SMILES,VDR inh
COc1ccccc1C(=O)Nc1nnc2n1CCS2,13%
Nc1c(C(=O)NCc2ccc(Cl)cc2Cl)nnn1Cc1ccc(Br)cc1,-9%
Cc1onc(-c2ccccc2)c1-c1nnc(CN2CCN(S(=O)(=O)c3ccccc3)CC2)o1,-2%
CCOc1nc(C#N)nc(N(c2ccccc2)c2ccccc2)n1,-3%
CCn1c(SCC(=O)N2CCCCC2C)nnc1-c1ccco1 (centres undefined),-8%

(next part)
SMILES,VDR inh
Nc1ccc(C(=O)C(=O)c2ccc(N)cc2)cc1,2%
O=c1c(N2CCN(c3ccc(F)cc3)CC2)csc2ccc(F)cc12,10%
C/C(CCc1ccc2c(c1)OCO2)=N\NC(=O)c1ccccc1Br,14%
O=C(NC(=S)NC(CO)Cc1ccccc1)c1ccc(F)cc1 (centres undefined),-2%
C[C@H](CO)N1C[C@H](C)[C@@H](CN(C)S(=O)(=O)c2ccc(F)cc2)Oc2ccc(NC(=O)CCN3CCOCC3)cc2C1=O,-15%
CC[C@@H](C(=O)[C@@H](C)[C@@H](O)[C@H](C)CCc1ccc(C)c(O)c1C(=O)O)C1O[C@](CC)(C2CC[C@](O)(CC)[C@H](C)O2)C[C@@H]1C (some centres undefined),-26%
COc1ccc(-c2cc(=O)c3c(O)cc(O[C@@H]4OC(COC5OC(C)C(O)C(O)[C@@H]5O)C(O)C(O)C4O)cc3o2)cc1 (some centres undefined),6%
Cc1ccc(NC(=O)c2ccc3c(c2)NC(=O)c2ccccc2S3)cc1,0%
Cc1ccc(OCC(=O)N2CCc3ccccc32)c([N+](=O)[O-])n1,-3%
COc1ccc(NC(=O)NC2(C(=O)N3CCN(C)CC3)CCCCC2)cc1,-6%
O=C(CSc1nc(-c2ccco2)cc(C(F)(F)F)n1)N1CCc2ccccc2C1,-1%
O=C(COC(=O)CNS(=O)(=O)/C=C/c1ccccc1)NC1CCS(=O)(=O)C1 (centres undefined),-5%
Cc1ccccc1-c1cc(C(=O)Nc2sc(C(=O)OC(C)C)c(C)c2C#N)c2ccccc2n1,?
Cc1ccc(C)c(OCCC(=O)OCC(=O)NCc2ccc(F)cc2)c1,-17%
O=C(CN1C(=O)NC2(CCc3ccccc32)C1=O)Nc1ccc(N2CCOCC2)cc1 (centres undefined),-20%
CCOC(=O)c1c(-c2ccc(C)cc2)csc1NC(=O)CCN1CCOCC1,-15%
CCOc1ccc(NC(=O)NC2CC(=O)N(c3ccc(OC)cc3)C2)cc1 (centres undefined),7%
N#Cc1ccc(S(=O)(=O)N2CCN(CC(=O)Nc3ccccc3C(=O)NC3CC3)CC2)cc1,-10%
COc1ccc(CCNC(=O)c2ccc3c(c2)CCN3S(C)(=O)=O)cc1OC,6%
Cc1ccc(S(=O)(=O)C(CNC(=O)C(=O)NCCc2ccccc2)c2ccco2)cc1 (centres undefined),-12%
CC(=O)Nc1ccc(CN2CCCC(C(=O)c3ccc(C(F)(F)F)cc3)C2)cc1 (centres undefined),22%
CCC(=O)N1CCc2cc(Br)cc(S(=O)(=O)CCC(=O)N3CCN(c4cccc(C(F)(F)F)c4)CC3)c21,-5%
Cn1/c(=N/N=C/c2ccc(N3CCOCC3)cc2)sc2ccccc21,1%
O=C(NC(=S)NC1CCS(=O)(=O)C1)c1ccccc1Br (centres undefined),-9%
CCOc1ccc(N(CC(=O)N2CCN(c3ccc(F)cc3)CC2)S(=O)(=O)c2c(C)noc2C)cc1,-8%
C[C@H](CO)N1C[C@H](C)[C@@H](CN(C)Cc2ccccc2)Oc2c(NC(=O)C3CCCCC3)cccc2C1=O,-13%
Cc1ccc2c(c1)-c1cc(C)nn1C(c1cc(Br)ccc1O)N2 (centres undefined),-3%
CC[C@]1(C(=O)OC)[C@H]2C(=O)N(C)C(=O)[C@H]2[C@H]2CN(C)C(=NC3CCCCC3)N21,-5%
COc1ccc(/C=N/NC(=O)c2cccnc2)cc1CN1CCOCC1,9%
Cc1ccc(-c2nc(NC(=O)CSc3ncnc4sc5c(c34)CCC(C)C5)ns2)cc1 (centres undefined),-13%
Cc1c(N/C(=N/S(=O)(=O)c2cc([N+](=O)[O-])ccc2Cl)c2ccccc2)c(=O)n(-c2ccccc2)n1C,-14%
CCN(CC(=O)NCc1ccc(F)cc1)C(=O)CCNS(=O)(=O)c1cccc(C)c1,-4%
Cc1ccc(CN2C(=O)CCC2C(=O)N2CCN(c3ccccc3)CC2)cc1 (centres undefined),-4%
COc1cccc(-c2cc(C(=O)NCCCN3CCOCC3)no2)c1,6%
Nn1c(SCC(=O)Nc2ccc(F)cc2)nnc1-c1cccnc1,-1%
O=S(=O)(NCCc1ccccc1)c1cccc(S(=O)(=O)N2CCOCC2)c1,10%
O=C(Nc1ccc(C(F)(F)F)cc1)N1CCN(C(=O)c2ccco2)CC1,7%
O=C(Nc1nccs1)c1cc(-c2ccco2)nc2ccccc12,-19%
COc1ccc(/C=N/NC(=O)CC(=O)NCc2cccnc2)cc1[N+](=O)[O-],-7%
COc1ccc(/C(O)=C2\C(=O)C(=O)N(c3cc(C)on3)C2c2ccc(OC)c(OC)c2)cc1OC (centres undefined),?
CCC(C)NC(=O)COC(=O)c1oc2ccccc2c1CSc1ccc(Cl)cc1 (centres undefined),8%
COc1ccc(OC)c(NC(=O)c2cc3c(cc2Cl)N2CCCCCC2=NS3(=O)=O)c1,-18%
Cc1cccc(C(=O)OC(C)C(=O)NC(=O)NC2CCCCC2)c1O (centres undefined),?
Cn1c(Cc2c[nH]c3ccccc23)n[nH]c1=S,17%
COc1ccc(C(C)(C)C)cc1NC(=O)COC(=O)c1cc(SC)ccc1Cl,-15%
CCCCCC1CC1C(=O)N/N=C/c1ccc(N(C)C)cc1 (centres undefined),-4%
CC1CCN(C(=O)CSc2nc(=O)n3cc(Cl)ccc3n2)CC1,10%
CCOc1ccc(CCNC(=O)C2Cc3ccccc3N2C(=O)CC)cc1 (centres undefined),8%
O=c1cc(Cl)c2ccccc2n1-c1ccccc1,4%
N#Cc1nc(COc2ccccc2)oc1N1CCOCC1,8%

Remaining list, next part.
SMILES,VDR inh
Cc1cccc(OCC(=O)Nc2c3c(nn2C(C)(C)C)CS(=O)(=O)C3)c1,-2%
O=C(c1ccc(F)cc1)n1nc(-c2ccccc2)nc1NCc1ccco1,-15%
Cc1ccc(-c2ccc(=O)n(CC(=O)NC(C)c3ccccc3)n2)cc1 (centres undefined),6%
COc1cc(OC)c(NC(=O)C2=C(C)C(=O)OC23CCCCC3)cc1Cl,-11%
COc1ccc(S(=O)(=O)NNC(=O)c2cc3cc4ccccc4nc3s2)cc1,-9%
COc1ccccc1N1CCN(C2CCN(C(=O)c3cc(OC)c(OC)c(OC)c3)CC2)CC1,13%
CCC(=O)N1CCc2cc(S(=O)(=O)NC(C(=O)NCc3ccc(F)cc3)C(C)C)ccc21 (centres undefined),-1%
O=C(C[n+]1ccc(Cc2ccccc2)cc1)Nc1ccc([N+](=O)[O-])cc1Cl,-10%
Nc1ccc(NC(=O)NC2CCCCC2)cc1,-4%
CC(OC(=O)c1ccc(Cl)c(S(N)(=O)=O)c1)C(=O)NCC1CCCCC1 (centres undefined),-15%
O=C(NCCc1ccccc1)C1CCN(C2CCN(Cc3ccc(CO)o3)CC2)CC1,-5%
Cc1cc(=O)[nH]c(SCc2nc3ccccc3s2)n1,-13%
COCCCn1c(=O)c2sccc2n2c(CCCC(=O)NCc3cccc(OC)c3)nnc12,17%&1%
COc1ccc(/C=C/C(=O)NCCNC(=O)c2ccccc2)cc1OC,-3%
O=C(Nc1cccc(Cl)c1)C1=Cc2cc(Cl)ccc2OC1,-12%
CCOc1cc(C2C3=C(CCCC3=O)NC3=C2C(=O)CCC3)ccc1OCCO,-1%
CC(C)C[C@@H](CO)NS(=O)(=O)c1c(F)cccc1F,-10%
O=C(c1ccc2c(c1)N(Cc1ccccc1F)C(=O)c1ccccc1S2=O)N1CCC(Cc2ccccc2)CC1 (centres undefined),-24%
O=c1ccc2[n+]([O-])c3ccc(O)cc3oc-2c1,11µM*
O=C(NCc1ccccc1Br)c1ccc2nc(N3CCCCC3)sc2c1,1%
CCC(Sc1nc2ccccc2[nH]1)C(=O)Nc1cc(C)on1 (centres undefined),-5%
O=C(O)c1ccc2cc[nH]c2c1,-1%
COc1ccccc1-c1nn2c(C(F)(F)F)nnc2s1,7%
COc1cccc(NC(=O)N2CCN(C(=O)C(Cc3ccc(OC)c(OC)c3)NC(C)=O)CC2)c1 (centres undefined),89%[activator]
CCc1ccc(S(=O)(=O)Nc2cc3c(cc2C)n(C)c(=O)n3C)cc1,-14%
CCOC(=O)c1c(C)[nH]c(C)c1C(=O)CSc1nc2ccccc2n1CC,-7%
CN(CC(=O)Nc1ccc(Cl)c(C(F)(F)F)c1)C(=O)/C=C/c1cccs1,-7%
COc1ccc(CCNC(=O)CSc2nc(C)nc3c2c(=O)n(C)c(=O)n3C)cc1OC,5%
CCS(=O)(=O)C1=NSC2=NC(=O)/C(=C\c3ccc(OC(=O)c4ccco4)cc3)C(=N)N21,?
COc1cc(C(=O)Nc2ccc(S(=O)(=O)Nc3onc(C)c3C)cc2)cc(OC)c1OC,0%
O=C(CSc1nnc(-c2c[nH]c3ccccc23)o1)N1c2ccccc2CCc2ccccc21,-1%
O=C(NC(=O)C(F)(F)F)Nc1ccc(S(=O)(=O)Nc2nccs2)cc1,-5%
N#Cc1cccc(-c2cncnc2NCc2cccnc2)c1,-9%
COc1ccc(-n2nc3c(N4CCC(C(=O)NCc5ccccc5C)CC4)nnc(C)c3c2C)cc1,-8%&5%
Cc1cc(C)nc(NC(=O)CSc2nc3cc(Cl)ccc3s2)n1,-3%
CCOc1ccc(-c2[nH]nc3c2C(c2ccc4c(c2)OCO4)C(C#N)=C(N)O3)cc1OC (centres undefined),-16%
Cc1cc(NC(=O)CSc2nnnn2Cc2ccccc2)no1,-13%
O=c1ccn([C@@H]2O[C@H](COS(=O)(=O)O)[C@@H](O)[C@H]2O)c(=O)[nH]1,-5%
COc1ccc(NS(=O)(=O)c2cccc(C(=O)NCc3ccccc3CN3CCCC3)c2)cc1,-19%
Nc1nc(SCc2ccccc2[N+](=O)[O-])c2ncn(Cc3ccccc3)c2n1,33%[activator]
C/C(=N\Nc1ccccn1)c1ccc(S(=O)(=O)NCc2ccco2)cc1,-10%
COc1ccccc1N1CCN(C(=O)CSc2nc3ccccc3nc2Cc2ccccc2)CC1,-5%
CCCSc1nc(N2CCCC2)c2c(c1C#N)CC(C)(C)OC2,8%

High-throughput results from PubChem BioAssay.
